Source: PubChem
DUX4 txn inh = blocks DUX4-driven transcriptional activation | actives 0.8% (n = 37,000) | activity change, negative = inhibition, % (concentration not given with the values) | 293T-iDUX4 ZSCAN4-Gaussia luciferase reporter, 24 h; stronger effect = lower value | AID 1224904;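 active = -10% or lower and over 25 points stronger than a control reporter; inconclusive = -10% or lower with a smaller gap; inactive = above -10%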;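 note: 0% = median of neutral control wells and -100% = median of positive control wells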
DUX4 txn inh difference = second read-out of DUX4 txn inh, no call of its own (marks repeat the call); Gaussia minus Italica difference, %; measured here: selective DUX4 reporter inhibition;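 worked out from the two reporters; negative = selective loss of the DUX4 reporter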
DUX4 txn inh control = also measured in DUX4 txn inh; calls as there; activity change, negative = inhibition, %; measured here: Italica tet-on control reporter;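 0 = neutral control and -100 = positive control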
Active calls of the source: *; ? = inconclusive; . = no result given; & = joins results of further samples. This is a subset. The share of hits here may be higher or lower than overall.

SMILES	DUX4 txn inh	DUX4 txn inh difference	DUX4 txn inh control
COc1ccc(CN2C[C@H](O)COC[C@H]3O[C@@H](CC(=O)N4CCc5ccccc5C4)CC[C@@H]32)cc1	?	.	.
CO[C@@H]1CN(C)C(=O)c2ccc(NC(=O)C3CCC3)cc2OC[C@H](C)N(Cc2ccccn2)C[C@@H]1C	-3.1	-5.6	2.4
C[C@H](CO)N1C[C@H](C)[C@H](CN(C)Cc2ccc(C(=O)Nc3ccccc3N)cc2)Oc2c(NS(=O)(=O)c3ccc(Cl)cc3)cccc2C1=O	-3.3	-5.7	2.4
C[C@@H]1CN([C@H](C)CO)C(=O)c2cccc(NC(=O)Nc3ccc(F)cc3)c2O[C@@H]1CN(C)S(=O)(=O)c1ccc(Cl)cc1	1.1	0.5	0.6
CO[C@H]1CN(C)C(=O)c2cc(NC(=O)C3CC3)ccc2OC[C@@H](C)N(C(=O)CN2CCOCC2)C[C@H]1C	1.5	2.5	-1.0
N#Cc1cccc(-c2ccc3c(c2)[C@H]2[C@H](CCN2C(=O)C2CCCCC2)[C@H](CO)N3)c1	?	.	.
O=C(Nc1cccc(Cl)c1)N1C[C@@H]2[C@H](c3ccccc31)[C@H](CO)N2C(=O)C1CCCC1	3.8	-1.0	4.8
CC(C)[C@H](C)NC(=O)N(C)C[C@H]1OCc2ccccc2-c2c(n(C)c3ccccc23)C(=O)N([C@@H](C)CO)C[C@H]1C	12.7	10.3	2.3
CC=Cc1ccc2n(c1=O)C[C@@H]1[C@@H](CO)[C@H](C(=O)N3CCOCC3)[C@H]2N1CC1CCCC1 (mixture of isomers)	0.0	-8.1	8.0
CO[C@H]1CN(C)C(=O)c2ccc(NC(=O)c3nc4ccccc4s3)cc2OC[C@H](C)N(Cc2cccnc2)C[C@H]1C	?	.	.
C[C@@H]1CN([C@@H](C)CO)C(=O)c2c(c3ccccc3n2C)-c2ccccc2CO[C@@H]1CN(C)C(=O)[C@H](Cc1ccccc1)N(C)C	?	.	.
CC(C)NC(=O)N1[C@H](CO)[C@@H](c2ccc(C#CC3CCCC3)cc2)[C@@H]1C#N	-0.2	-5.2	5.0
CC(C)NC(=O)N1[C@H](CO)[C@@H](c2ccc(-c3ccc(F)cc3)cc2)[C@@H]1C#N	1.2	2.3	-1.1
CO[C@@H]1CN(C)C(=O)c2cc(NS(=O)(=O)c3ccc(Oc4ccccc4)cc3)ccc2OC[C@@H](C)NC[C@@H]1C	-5.0	-1.0	-4.0
CN1c2ccc(-c3ccccc3F)cc2[C@H]2[C@H](CCN2C(=O)Cc2ccccn2)[C@@H]1CO	18.9	46.4	-27.5
N#C[C@@H]1[C@@H](c2ccc(C3=CCCC3)cc2)[C@H](CO)N1c1nc(-c2ccccc2)cs1	0.2	1.5	-1.3
COCCNC(=O)C[C@@H]1CC[C@H]2[C@@H](COC[C@H](O)CN2Cc2ccc(Cl)c(Cl)c2)O1	-1.3	8.6	-9.9
O=C(C[C@@H]1C=C[C@H](NC(=O)CCN2CCCCC2)[C@H](CO)O1)NCc1ccc(Cl)c(Cl)c1	-1.7	3.3	-4.9
CC(C)NC(=O)N1CCCCN2[C@H](CO)[C@H](c3ccc(C#C[C@H](C)O)cc3)[C@@H]2C1	39.4	24.5	14.9
CCCNC(=O)C[C@@H]1CC[C@@H]2[C@H](COC[C@@H](O)CN2C(=O)Nc2c(C)noc2C)O1	2.3	0.6	1.7
CN1C(=O)c2cc(NC(=O)c3cccc(F)c3)ccc2OC[C@@H]2O[C@H](CC(=O)NC3CCC3)CC[C@H]21	0.3&1.0	-2.9&-1.9	3.2&2.8
C[C@@H](NC(=O)C[C@H]1CC[C@@H]2[C@H](COc3ccc(NS(=O)(=O)c4ccc(Cl)cc4)cc3C(=O)N2C)O1)c1ccccc1	-0.2	-2.8	2.6
Cc1ccc(-c2ccc([C@H]3[C@@H](CO)N4CCCCN(S(=O)(=O)c5ccccc5C)C[C@@H]34)cc2)cc1	?	.	.
O=C(Cc1ccccn1)N[C@@H]1CC[C@@H](CCn2cc(-c3ccc(F)cc3)nn2)O[C@@H]1CO	?	.	.
O=C(C[C@H]1C[C@@H]2c3cc(NC(=O)Cc4ccncc4)ccc3O[C@@H]2[C@@H](CO)O1)NCc1ccc2c(c1)OCO2	0.9	0.6	0.3

Following part.
SMILES	DUX4 txn inh	DUX4 txn inh difference	DUX4 txn inh control
O=S(=O)(c1ccccc1)N1C[C@H]2[C@@H](c3ccccc31)[C@H](CO)N2Cc1ccc(F)cc1	5.5	5.3	0.2
COc1ccc(C#Cc2ccc3c(c2)[C@@H]2[C@@H](CCN2C(C)=O)[C@@H](CO)N3)cc1	19.5	-1.9	21.4
C/C=C/c1ccc([C@H]2[C@H](CO)N(C(=O)C3CCCC3)C23CN(C(=O)NC(C)C)C3)cc1	9.9	8.6	1.3
COc1ccc2c3c([nH]c2c1)[C@H](CO)N(C(=O)c1ccncc1)CC31CCN(C(=O)C2CCC2)CC1	15.5	16.0	-0.5
COc1cccc(CN2CCCCN3[C@H](CO)[C@H](c4ccc(-c5cccc(C#N)c5)cc4)[C@@H]3C2)c1	-3.2	1.8	-5.1
CN(C)C(=O)c1ccc(-c2ccc([C@@H]3[C@@H](CO)N(C(=O)C4CCCC4)[C@H]3C#N)cc2)cc1	-4.0	-0.6	-3.3
Cc1ccc(S(=O)(=O)N2C[C@H](O)COC[C@@H]3O[C@H](CC(=O)NCc4ccc5c(c4)OCO5)CC[C@H]32)cc1	1.5	-3.9	5.4
Cc1ccc(S(=O)(=O)N(C)C[C@H]2OCc3ccccc3-c3ccccc3C(=O)N([C@H](C)CO)C[C@@H]2C)cc1	4.8	6.7	-1.9
CN1c2ccc(-c3ccc(C#N)cc3)cc2[C@@H]2[C@@H](CCN2C(=O)c2cccc(F)c2)[C@H]1CO	-6.7	-12.6	5.9
O=C(Nc1ccc(F)cc1)N1C[C@H]2[C@@H](c3ccccc31)[C@@H](CO)N2C(=O)c1ccccn1	0.6	4.7	-4.2
C[C@@H]1CN([C@H](C)CO)C(=O)c2cccc(NC(=O)c3ccc(-c4nccs4)cc3)c2O[C@H]1CN(C)C(=O)Nc1ccc(C(F)(F)F)cc1	-3.3	-1.2	-2.1
CC(C)C(=O)Nc1ccc2c(c1)C(=O)N(C)[C@@H]1CC[C@@H](CC(=O)NCC3CC3)O[C@@H]1CO2	4.1	1.5	2.6
COCC(=O)N1C[C@H](C)[C@@H](OC)CN(C)C(=O)c2ccc(NC(=O)c3cc(C)on3)cc2OC[C@@H]1C	6.4	6.9	-0.5
CCCN1[C@H](C(=O)OC)[C@@H](CO)[C@@H]2Cn3c(ccc(C4=CCCCC4)c3=O)[C@@H]21	0.8	-2.4	3.3
CC=Cc1ccc2n(c1=O)C[C@H]1[C@H](CO)[C@@H](C(=O)NC3CCCC3)N(CCC)[C@@H]21 (mixture of isomers)	?	.	.
CCC(=O)N1[C@H](CO)[C@H](c2ccc(-c3cccc(F)c3)cc2)[C@@H]1CNC(C)=O	6.0	1.8	4.2
O=C(C1CCC1)N1CC[C@@H]2[C@H](CO)Nc3ccc(C#Cc4ccc(F)cc4)cc3[C@@H]21	?	.	.
CCNC(=O)Nc1ccc2c(c1)C(=O)N(C)[C@H]1CC[C@H](CC(=O)NCCN3CCCC3)O[C@@H]1CO2	-0.6	-4.4	3.8
CN1C(=O)c2cc(NC(=O)Cc3cccs3)ccc2OC[C@H]2O[C@@H](CC(=O)NCC3CCCCC3)CC[C@H]21	2.1	-1.3	3.5
O=C(C1CCCC1)N1C[C@@H]2[C@H](c3ccccc31)[C@H](CO)N2C(=O)c1cccnc1	-6.1	-10.4	4.2
CN1CCN(C(=O)C[C@H]2CC[C@H]3[C@@H](COC[C@@H](O)CN3C(=O)C3CCOCC3)O2)CC1	10.2	4.9	5.3
Cc1cccc(-c2ccc([C@@H]3[C@H]4CN(S(=O)(=O)c5cccc(F)c5)CC(=O)N4[C@H]3CO)cc2)c1	-4.6	5.1	-9.7
CC(C)(C)[S@@](=O)N1Cc2cc(C(=O)NCc3ccccc3F)nc(-c3cccc(-c4cncnc4)c3)c2[C@H]1CCO	-8.7	-7.6	-1.1
C[C@@H]1CN([C@H](C)CO)C(=O)c2c(c3ccccc3n2C)-c2ccccc2CO[C@@H]1CN(C)S(=O)(=O)c1ccccc1C#N	1.4	-2.0	3.5
C[C@H](CO)N1C[C@H](C)[C@@H](CN(C)C(=O)Cc2ccncc2)Oc2ncc(C#CC3(O)CCCC3)cc2C1=O	4.5	3.6	0.8

Additional structures:
SMILES	DUX4 txn inh	DUX4 txn inh difference	DUX4 txn inh control
O=C(CN1CCOCC1)N1CCCCN2[C@@H](CO)[C@@H](c3ccc(-c4ccccc4)cc3)[C@@H]2C1	8.5	1.9	6.6
Cc1ccc(S(=O)(=O)Nc2ccc3c(c2)C(=O)N([C@@H](C)CO)C[C@@H](C)[C@H](CN(C)Cc2ccc4c(c2)OCO4)OCCCC[C@@H](C)O3)cc1	3.9	3.0	0.9
C/C=C/c1ccc([C@@H]2[C@H](C#N)N(C(=O)CN3CCOCC3)[C@H]2CO)cc1	0.2	3.8	-3.6
COc1ccccc1S(=O)(=O)N[C@H]1C=C[C@H](CC(=O)NCc2cccc(F)c2)O[C@H]1CO	-0.3	2.2	-2.5
O=C(C[C@H]1CC[C@@H](NC(=O)c2cccnc2)[C@@H](CO)O1)NCc1ccc(Cl)c(Cl)c1	-6.3	-7.5	1.3
Cc1ccccc1S(=O)(=O)N1C[C@@H]2N[C@H](C1)C2c1ccc(-c2cccc(C(=O)N(C)C)c2)cc1 (stereo not given in full)	?	.	.
COc1ccc(C#Cc2ccc([C@H]3[C@@H](CO)N4C(=O)CN(C(=O)c5cccnc5)C[C@H]34)cc2)cc1	-9.5	-9.9	0.4
C/C=C/c1ccc([C@@H]2[C@H](CO)N(S(C)(=O)=O)C23CN(C(=O)CC)C3)cc1	2.5	-4.8	7.3
C[C@@H]1CN([C@@H](C)CO)C(=O)c2cccc(NS(=O)(=O)c3ccc(Cl)cc3)c2O[C@H]1CN(C)Cc1ccc(C(=O)Nc2ccccc2N)cc1	3.3	-3.2	6.5
Cc1noc(C)c1NC(=O)Nc1cccc2c1O[C@@H](CN(C)C(=O)NC1CCCCC1)[C@@H](C)CN([C@@H](C)CO)C2=O	2.5	4.2	-1.7
COc1ccc2c3c(n(C)c2c1)[C@@H](CO)N(C(=O)CC1CC1)CC31CCN(C(=O)C2CCC2)CC1	14.6	2.6	12.0
CNC[C@H]1Oc2c(NS(=O)(=O)c3ccc(Cl)cc3)cccc2C(=O)N([C@@H](C)CO)C[C@@H]1C	4.0	-1.1	5.2
CN1C(=O)c2cc(NC(=O)c3ccc(F)c(F)c3)ccc2OC[C@H]2O[C@@H](CC(=O)N[C@@H]3CCN(Cc4ccccc4)C3)CC[C@H]21	0.4&6.2	-2.9&3.0	3.3&3.2
O=C(C[C@@H]1CC[C@@H]2[C@H](COC[C@@H](O)CN2Cc2cccc(C(F)(F)F)c2)O1)NCCc1ccccc1	?	.	.
C[C@@H]1CCCCO[C@@H](CN(C)C(=O)CCCN(C)C)[C@@H](C)CN([C@H](C)CO)C(=O)c2cc(N(C)C)ccc2O1	5.3	1.1	4.3
CCC(=O)N1C[C@@H](C)[C@@H](OC)CN(C)C(=O)c2cc(NC(=O)c3ccccc3)ccc2OC[C@@H]1C	11.0	11.6	-0.6
O=C(NCC[C@H]1CC[C@H](NC(=O)C2CC2)[C@@H](CO)O1)Nc1ccc(C(F)(F)F)cc1	4.1	8.1	-3.9
C[C@H](NC(=O)C[C@@H]1CC[C@H]2[C@@H](COC[C@H](O)CN2C)O1)c1ccccc1	9.8	6.9	2.9
OC[C@@H]1[C@@H](c2ccc(-c3ccccc3F)cc2)[C@H]2CN(Cc3ccncc3)CCCCN12	-4.1	5.2	-9.2
O=C(NCc1ccc(F)cc1)[C@@H]1[C@@H](CO)[C@@H]2Cn3c(cccc3=O)[C@@H]2N1CCC(F)(F)F	-6.6	-6.2	-0.4
CO[C@@H]1CN(C)C(=O)c2cc(NC(=O)C3CC3)ccc2OC[C@H](C)N(C(=O)c2ccccn2)C[C@@H]1C	2.7	2.7	0.0
COc1ccc(C#Cc2ccc3c(c2)[C@H]2[C@H](CCN2S(=O)(=O)c2cccc(OC)c2)[C@H](CO)N3C)cc1	?	.	.
C[C@H]1CCCCO[C@H](CN(C)C(=O)c2ccccc2)[C@@H](C)CN([C@@H](C)CO)C(=O)c2cc(NC(=O)C3CCCCC3)ccc2O1	1.1	2.9	-1.8

Of the compounds above, nine contain a cyano group.
SMILES	DUX4 txn inh	DUX4 txn inh difference	DUX4 txn inh control
N#Cc1cccc(-c2ccc3c(c2)[C@H]2[C@H](CCN2C(=O)C2CCCCC2)[C@H](CO)N3)c1	?	.	.
CC(C)NC(=O)N1[C@H](CO)[C@@H](c2ccc(C#CC3CCCC3)cc2)[C@@H]1C#N	-0.2	-5.2	5.0
CC(C)NC(=O)N1[C@H](CO)[C@@H](c2ccc(-c3ccc(F)cc3)cc2)[C@@H]1C#N	1.2	2.3	-1.1
N#C[C@@H]1[C@@H](c2ccc(C3=CCCC3)cc2)[C@H](CO)N1c1nc(-c2ccccc2)cs1	0.2	1.5	-1.3
COc1cccc(CN2CCCCN3[C@H](CO)[C@H](c4ccc(-c5cccc(C#N)c5)cc4)[C@@H]3C2)c1	-3.2	1.8	-5.1
CN(C)C(=O)c1ccc(-c2ccc([C@@H]3[C@@H](CO)N(C(=O)C4CCCC4)[C@H]3C#N)cc2)cc1	-4.0	-0.6	-3.3
CN1c2ccc(-c3ccc(C#N)cc3)cc2[C@@H]2[C@@H](CCN2C(=O)c2cccc(F)c2)[C@H]1CO	-6.7	-12.6	5.9
C[C@@H]1CN([C@H](C)CO)C(=O)c2c(c3ccccc3n2C)-c2ccccc2CO[C@@H]1CN(C)S(=O)(=O)c1ccccc1C#N	1.4	-2.0	3.5
C/C=C/c1ccc([C@@H]2[C@H](C#N)N(C(=O)CN3CCOCC3)[C@H]2CO)cc1	0.2	3.8	-3.6
